Cruzain noTriton = blocks cruzain activity in detergent-free assay | P25779 | purified cruzain, Z-FR-AMC fluorescence, no detergent | Potency, µM, without a hit: max response, negative = inhibition, hits mostly inhibitors | actives 2.3% (n = 200,000);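 also: plate controls were enzyme without inhibitor for no effect and buffer without enzyme for full effect; nearly all actives have a fitted effect of over 40% in size; top concentration of the series not given in the record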
Target sequence (P25779 123-467 limits assumed): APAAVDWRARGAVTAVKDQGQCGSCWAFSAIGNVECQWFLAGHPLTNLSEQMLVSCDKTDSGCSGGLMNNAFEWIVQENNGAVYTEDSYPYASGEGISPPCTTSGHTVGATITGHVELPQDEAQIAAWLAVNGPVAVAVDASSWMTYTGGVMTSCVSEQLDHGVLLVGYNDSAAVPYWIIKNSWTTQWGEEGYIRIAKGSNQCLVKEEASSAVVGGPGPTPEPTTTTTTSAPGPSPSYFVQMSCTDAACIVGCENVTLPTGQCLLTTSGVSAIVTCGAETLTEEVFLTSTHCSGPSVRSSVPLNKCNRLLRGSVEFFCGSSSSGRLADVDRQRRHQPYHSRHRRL
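Detergent-free condition (0.00005% Triton X-100) in acetate buffer pH 5.5 with DTT. 1.5 nM enzyme and compound were pre-mixed 15 min, then 2 uM Z-FR-AMC substrate added; reaction progress from fluorescence change between first and third reads (60 s).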
Lassa entry inh = Lassa virus entry inhibition; Lassa virus pseudotype entry inhibition, cell reporter; control for the full effect not named in the record; Potency, µM (series often up to 37.9 µM), inactives show at the highest dose activity change, negative = inhibition, hits mostly inhibitors; actives 1.2% (n = 300,000); AID 540256; active means well fitted inhibition curve with a large enough effect; inconclusive means small, poorly fitted or top-dose-only effect, or effect the other way; inactive means flat fitted curve, though single readings scatter; tested in HEK293 cells; also: % is scaled to controls: 0 for no effect and ±100 for the full control effect; nearly all actives have a fitted effect of over 50% in size; luciferase read-out
Marburg entry inh = inhibitors of Marburg virus binding or cell entry; AID 540276; Marburg virus pseudotyped entry inhibition, cell reporter; control for the full effect not named in the record; about a third of the inactives were read at about 46 µM; Potency, µM (series often up to 37.8 µM), inactives show top-dose activity change, negative = inhibition, actives largely listed as inhibitors; actives 1.8% (n = 300,000); active = well fitted inhibition curve with a large enough effect; inconclusive = small, poorly fitted or top-dose-only effect, or effect the other way; inactive = flat fitted curve, though single readings scatter; tested in HEK293 cells; about a fifth of its hits are not listed in these tables; also: % is scaled to controls: 0 for no effect and ±100 for the full control effect; luciferase read-out
RE007 growth inh = less growth of the S. pombe RE007 Vpr strain; S. pombe RE007 Vpr strain, BacTiter-Glo ATP luminescence, 24 h; control for the full effect not named in the record; Potency, µM (series often up to 92.2 µM), for inactives: at the top dose activity change, negative = less growth; actives 0.21% (n = 360,000); AID 651644; active = well fitted falling curve with a large enough effect; inconclusive = small, poorly fitted or top-dose-only effect; inactive = no such curve, though single readings can be large or run the other way;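 also: % is scaled to controls: 0 for no effect and ±100 for the full control effect; nearly all actives have a fitted effect of over 50% in size; the assay follows cell death caused by Vpr and the record does not say whether a fall means rescue or toxicity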
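Fission yeast strain RE007, carrying one chromosomally integrated HIV-1 vpr copy, was seeded at OD 0.01 in PMG+AL medium with 23 nL pinned compound. After 24 h at 30 °C and 99% humidity, viability was read by BacTiter-Glo luminescence.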
2A StopGo = FMDV 2A StopGo reporter, luciferase signal; human cells with a luciferase reporter of 2A StopGo recoding; control for the full effect not named in the record; Potency, µM (series often up to 57.9 µM), for the others: top-dose signal change, negative = less light; actives 1.2% (n = 410,000); AID 1159524; active = well fitted falling curve with a large enough effect; inconclusive = small, poorly fitted or top-dose-only effect; inactive = no such curve, though single readings can be large or run the other way; tested in HEK293T cells; also: % is scaled to controls: 0 for no effect and ±100 for the full control effect; nearly all actives have a fitted effect of over 45% in size; luciferase light after 4 h
SARS PLP yeast = inhibitors of SARS-CoV papain-like protease in yeast. S. cerevisiae expressing SARS-CoV PLpro, growth rescue; control for the full effect not named in the record. Potency, µM (doses to about 32.9 µM), inactives show at the top dose activity, positive = growth rescue. actives 0.19% (n = 330,000); active means well fitted rising curve with a large enough effect; inconclusive means small, poorly fitted or top-dose-only effect; inactive means no such curve, though single readings can be large or run the other way; also: 0% is about no effect; nearly all actives have a fitted effect of over 55% in size; growth read by luminescence after 48 h
NS1 inh = inhibitors of influenza NS1 protein function; AID 2326; Potency, µM (doses to about 46.1 µM), for the others: top-dose activity, positive = more growth; actives 0.4% (n = 270,000); S. cerevisiae slowed by influenza A NS1, growth recovery by OD600; active means well fitted rising curve with a large enough effect; inconclusive means small, poorly fitted or top-dose-only effect; inactive means no such curve, though single readings can be large or run the other way; also: nearly all actives have a fitted effect of over 50% in size
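In this qHTS, NS1 from influenza A is expressed in budding yeast, where it slows growth. Cells are switched from glucose to 2% galactose medium (pH 6.0, -URA), treated with compound, and growth recovery is read at OD600.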
Cruzain inh Det = inhibitors of Trypanosoma cruzi cruzain with detergent | P25779 | purified cruzain, Z-FR-AMC fluorescence, 0.01% Triton | Potency, µM, without a hit: max response, negative = inhibition, hits mostly inhibitors | actives 0.43% (n = 200,000);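 also: plate controls were neutral wells for no effect and buffer without enzyme for full effect; nearly all actives have a fitted effect of over 40% in size; top concentration of the series not given in the record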
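Read-out: AMC fluorescence (360 nm excitation, 450 nm emission), four reads over 2 min, first-to-third difference used. Conditions: cruzain 1.5 nM, Z-FR-AMC 2 uM, pH 5.5 acetate, 5 mM DTT, 0.01% Triton X-100.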
An asterisk follows results filed as active; ? = inconclusive; · = not tested or not shown; & = joins results of further samples; [ ] = remark or other dose. Unless noted, calls follow the shape of the dose curve; as a rule, active = well fitted curve in the direction sought with a large enough effect; inconclusive = small, poorly fitted or top-dose-only effect, or another doubt; inactive = no such curve, though single readings can be large; an effect the other way counts as inactive or inconclusive. Potency is read from the fitted curve at half-maximal effect. Compounds as they come; overall some 4.8% were active at least once.

SMILES	Cruzain noTriton	Lassa entry inh	Marburg entry inh	RE007 growth inh	2A StopGo	SARS PLP yeast	NS1 inh	Cruzain inh Det
O=C(CC(=O)NCc1cccnc1)NCc1cccnc1	3%	-12%	-2%	4%	2%	2%	3%	7.3%
O=[N+]([O-])c1ccc(Cl)c(C[n+]2cccc3ccccc32)c1	·	·	·	2%	-13%	1%	22%	·
Cc1ccnc(NS(=O)(=O)c2ccc(NC(=O)CN3C(=O)c4ccccc4S3(=O)=O)cc2)n1	·	?	?	-4%	2%	-5%	·	·
COc1cccc(-n2c(C)nn(CCOc3ccccc3)c2=O)c1	·	16%	1%[46.1 µM]	-16%	46%[activator]	19%	-4%	·
O=C(CCN1CCN(c2ccccc2F)CC1)Nc1ccc(F)cc1	·	·	·	-2%	1%	1%	5%	·
O=C(Nc1ccccc1[N+](=O)[O-])c1nc[nH]c1C(=O)NCCO	6%	-13%	?	20%	-18%	11%	0%	1.9%
CC(C)C[C@H](NC(=O)OC(C)(C)C)C(=O)N1CCC(C(=O)N[C@@H](Cc2ccccc2)C(=O)O)CC1	?	0%	3%	10%	·	-1%	3%	2.9%
O=C(CCCn1c(=O)[nH]c2cc(Cl)ccc2c1=O)NC1CCCCCCC1	-2%	2%	-5%	-2%	-17%	2%	-4%	2.5%
CCN(CC)CCNc1nc(-c2cccs2)c(CC(=O)O)s1	·	14%	?	14%	-12%	2%	·	·
CC(C)NS(=O)(=O)c1ccc(NC(=O)C(C)OC(=O)CCCOc2ccccc2)cc1 (stereo not drawn)	·	-3%	4%	-5%	0%	2%	·	·
COc1cc(-c2nnc(SC(C)C(=O)Nc3c(C)n(C)n(-c4ccccc4)c3=O)o2)cc(OC)c1OC (stereo not drawn)	-3%	-3%	5%	-1%	1%	4%	3%	4.7%
COc1ccc(N/C(N)=N/c2nc(C)cc(C)n2)c(OC)c1	·	-7%	-6%[46.1 µM]	-16%	?	0%	-3%	·
O=C(/C(=C/c1cccc(Cl)c1)c1nc2ccccc2[nH]1)c1ccccc1	-29%	10µM*	?	-11%	7.9µM*	-28%	0%	-5.8%
COC(=O)c1cccc(NC(=O)COc2cccc([N+](=O)[O-])c2)c1	·	·	·	-2%	7%	0%	-8%	·
CCOc1ccc(-c2cc(C(=O)Oc3ccc(C#N)cc3)no2)cc1	2%	6%[46.1 µM]	-1%[46.1 µM]	·	7%	·	·	-2.1%
CCc1noc(C)c1C(=O)N(CCC(C)C)c1c(N)n(Cc2ccccc2)c(=O)[nH]c1=O	·	-4%	25%	7%	-5%	3%	·	·
Fc1ccc(Nc2nc(SCc3ccccc3Cl)nc3ccccc23)cc1	?	8%[46.1 µM]	·	·	-25%	·	·	-1.0%
COc1ccc(OCc2nnc(NC(=O)Nc3ccccc3F)s2)cc1	·	?	-1%[46.1 µM]	0%	-6%	0%	-3%	·
O=C(Nc1cccc(NC(=O)c2ccco2)n1)c1ccco1	·	·	·	-3%	-4%	-7%	-15%	·
CCO/C(C)=N/n1c2nc3ccccc3nc2c2c(=O)n(CC(C)C)c(C)nc21	-1%	5%	-2%[46.1 µM]	4%	-10%	8%	-3%	-0.6%
CC(C)N=C1NN=C(c2ccc(F)cc2)CS1	·	?	?	-10%	0%	-4%	·	·
C/C(=N/NC(=O)c1ccc2c(c1)OCO2)c1ccc(NC(=O)c2ccc(F)cc2)cc1	·	20%[46.1 µM]	17%[46.1 µM]	-11%	2%	-4%	10%	·
O=C(NNC(=O)c1cccs1)c1cccc(F)c1	·	30%	1%[46.1 µM]	8%	?	1%	-7%	·
CSC1=C(C#N)C(C)CC(=O)N1 (stereo not drawn)	-2%	-4%	-17%	4%	-15%	?	9%	-2.6%
CCOc1ccc(CCNC(=O)C2CC(C)=CCC2C(=O)O)cc1OCC (stereo not drawn)	·	?	9%[46.1 µM]	-4%	-15%	0%	3%	·
CN(CCCN1CCOCC1)Cc1nc(-c2ccccc2)no1	·	·	·	-3%	-8%	0%	5%	·
COc1cc(C2C(C(C)=O)=C(O)C(=O)N2c2ccc(Br)cn2)ccc1O (stereo not drawn)	-22%	0%	-9%	-2%	30%[activator]	2%	26%	-3.8%
CNC(=O)N(O)C1N(/N=C/c2ccccc2F)C(=S)SC1(C)C (stereo not drawn)	·	·	·	-1%	35%[activator]	0%	4%	·
CCC(C)Sc1nc2c(cnn2-c2ccc(C)cc2)c(=O)[nH]1 (stereo not drawn)	20µM*	·	·	12%	0%	-3%	-6%	1.7%
C#CCOCCOCCOCCNc1nc(N2CCN(C(=O)Cn3cc(CC(C)O)nn3)CC2)nc(N2CCN(C(=O)[C@H]([C@@H](C)CC)n3cc(CCCN=C(N)N)nn3)CC2)n1 (stereo partly drawn)	-7%	1%	4%	3%	-8%	-10%	-9%	-23%
CC(=O)Nc1ccc(CCCCc2ccccc2)cc1	·	-11%[46.1 µM]	?	9%	9%	·	·	·
O=C(CSc1nnnn1C1CC1)Nc1cccc(S(=O)(=O)N2CCCC2)c1	·	-4%	?	-16%	-1%	-1%	·	·
N#Cc1cc([N+](=O)[O-])cnc1Nc1ccccc1	-16%	-13%	17%	-14%	-14%	3%	11%	-6.2%
CCCOc1cccc(C(=O)Nc2cccc3cccnc23)c1	-11%	-28%[46.1 µM]	·	·	7%	·	·	-6.6%
Cc1cc(N2CCCC2=O)cc(C)c1S(=O)(=O)NCCOc1ccccc1	3%	-1%	-25%	6%	·	0%	-12%	5.5%
COc1ccc(C)cc1NC(=O)CN(C)S(=O)(=O)c1ccc2c(c1)c(=O)n(C)c(=O)n2C	-14%	18%[46.1 µM]	-12%[46.1 µM]	-2%	-23%&9%	-2%	16%	2.6%
CS(=O)(=O)c1ccc(C(=O)OCC(=O)NC(=O)Cc2ccccc2)cc1	·	23%	4%[46.1 µM]	-2%	-15%	-2%	·	·
CCCNC(=O)C1CCN(C(=O)N2CC(C)Oc3ccccc32)CC1 (stereo not drawn)	4%	?	·	·	-12%	·	·	-0.7%
C=CCNC(=O)c1nc2ccccc2s1	-11%	12%	0%	-11%	0%	2%	1%	6.8%
O=C(CSCc1cnn(-c2ccccc2)c1-n1cccc1)NCc1cccc(Cl)c1	2%	2%[46.1 µM]	9%[46.1 µM]	·	-8%	·	·	-1.5%
COc1ccc(NC(=O)c2cc(-c3ccc(OC)c(OC)c3)on2)cc1OC	8%	-35%[14.3 µM]	-2%	6%	16%	0%	1%	0.7%
COc1ccccc1NC(=O)c1cc2cc(Br)ccc2cc1O	·	·	·	-26%	?	-20%	-61%	·
Cc1ccccc1NC(=O)CSc1nc2ncc(Cl)cc2[nH]1	·	·	·	7%	-1%	-2%	?	·
CC(C)(C)NC(=O)NC(=O)CN1CCN(c2ccc(O)cc2)CC1	·	?	-27%[46.1 µM]	-3%	?	-1%	·	·
COc1ccc(C(=O)NCCCN2CCOCC2)cc1OC	1%	-1%	0%	-3%	-6%	9%	5%	5.6%
O=C(C1COc2ccccc2O1)N1CCN(c2ccccc2Cl)CC1 (stereo not drawn)	·	23%[46.1 µM]	2%[46.1 µM]	-11%	8%	-9%	·	·
CCSc1nnc(NC(=O)CCn2c(=O)oc3ccccc32)s1	·	·	·	3%	?	-2%	4%	·
O=C1c2[nH]nc(-c3ccccc3O)c2C(c2cccc(Cl)c2)N1Cc1cccnc1 (stereo not drawn)	-1%	-27%[46.1 µM]	-19%[46.1 µM]	·	?	·	·	-4.9%
Cc1ccc(N(CN2CCCC2=O)C(=O)c2ccc(C)c(C)c2)cc1	1%	-1%	0%	3%	12%	0%	-2%	-2.7%
CSc1nc2ccc(NS(=O)(=O)c3ccccc3F)cc2s1	5%	14%	3%	-14%	67%[activator]	4%	0%	-4.4%
CCN1CCN(c2ncnc3c2cnn3-c2cc(Cl)ccc2C)CC1	0%	-23%[46.1 µM]	·	·	0%	·	·	0.3%
Cc1nn(CCC#N)c2[nH]c(=O)cc(C(F)(F)F)c12	·	11%[46.1 µM]	12%[46.1 µM]	-8%	-17%	-1%	·	·
O=C(CSc1nnc(-c2ccco2)n1Cc1ccco1)NCc1cccs1	3%	-3%	4%	-1%	1%	-4%	2%	2.9%
CCSCc1nnc(SCC(=O)Nc2ccc(F)cc2)n1CC	·	27%	-3%[46.1 µM]	-4%	0%	0%	-2%	·
COc1ccc(C(CCc2cc(OC)c(OC)c(OC)c2)NC(C)=O)cc1 (stereo not drawn)	·	-16%[46.1 µM]	2%[46.1 µM]	9%	9%	·	·	·
CCCCCCCCCCCC(=O)NC(Cc1ccc(OC)c([N+](=O)[O-])c1)C(=O)O (stereo not drawn)	·	-21%	1%[46.1 µM]	1%	-29%	-1%	-3%	·
O=C(O)CCCC(=O)NS(=O)(=O)c1ccc(Cl)cc1	3%	17%	29%[46.1 µM]	3%	-18%	1%	4%	2.0%
CCOC(=O)CSC1=C(C#N)C(c2ccccc2Cl)C(C(=O)OC)C(=O)N1 (stereo not drawn)	1%	?	-6%	-8%	-21%	-3%	0%	-3.2%
COc1ccc(C(=O)NC(=S)NNC(=O)c2ccccc2O)cc1	·	-4%	13µM*	6%	10%	2%	-4%	·
COc1ccc(Cl)cc1NC(=O)Cn1c(=O)n(CCC(=O)NCc2ccc3c(c2)OCO3)c(=O)c2ccccc21	6%	-1%[46.1 µM]	-20%[46.1 µM]	·	18%	·	·	-2.7%
COc1ccc2[nH]c3c(=O)n4c(nc3c2c1)SCCC4	·	-30%	?	-6%	19%	1%	·	·
O=C(COC(=O)COc1ccc(Cl)cc1)Nc1ccc(N2CCOCC2)cc1	·	7%[46.1 µM]	1%[46.1 µM]	4%	5%	1%	4%	·

Source: PubChem
